Bioassay records as filed in PubChem BioAssay.
Bfl-1 A1 inh – inhibitors of the anti-apoptotic protein A1, read as caspase activation. MEF A1-2A-BIM cells, Caspase-Glo 3/7 luminescence, 3 h; percent of clofoctol response, vehicle zero. caspase activation, % (test concentration not listed). hit rate 0.066% among 330,000. AID 2462;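 active = over half of replicate activation scores above 10%, or exactly half above 10 with the replicate mean above 10; inconclusive = replicate mean below 10 yet half the replicates above 10; inactive = over half of replicates below 10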;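 also: wells of about 30 µL received 50 nL stock; many hits fall short of the cut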
LANA-H2B inh – blocks KSHV LANA binding to histone H2A/H2B | Q9QR71 | cell-free LANA-H2A/H2B peptide, fluorescence polarization | inhibition, % (no concentration beside the values) | hit rate 0.6% among 320,000 | AID 2629; in the data active = inhibition mostly above about 10%, no sharp cut-off; inactive = mostly below about 6.7%;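 also: stock transfer was 7.5 nL into about 10 µL; 0% = median of vehicle wells and 100% = median of positive control wells; one replicate is shown; the record names a cut of 25% in any replicate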
Target sequence (Q9QR71 whole entry, looked up): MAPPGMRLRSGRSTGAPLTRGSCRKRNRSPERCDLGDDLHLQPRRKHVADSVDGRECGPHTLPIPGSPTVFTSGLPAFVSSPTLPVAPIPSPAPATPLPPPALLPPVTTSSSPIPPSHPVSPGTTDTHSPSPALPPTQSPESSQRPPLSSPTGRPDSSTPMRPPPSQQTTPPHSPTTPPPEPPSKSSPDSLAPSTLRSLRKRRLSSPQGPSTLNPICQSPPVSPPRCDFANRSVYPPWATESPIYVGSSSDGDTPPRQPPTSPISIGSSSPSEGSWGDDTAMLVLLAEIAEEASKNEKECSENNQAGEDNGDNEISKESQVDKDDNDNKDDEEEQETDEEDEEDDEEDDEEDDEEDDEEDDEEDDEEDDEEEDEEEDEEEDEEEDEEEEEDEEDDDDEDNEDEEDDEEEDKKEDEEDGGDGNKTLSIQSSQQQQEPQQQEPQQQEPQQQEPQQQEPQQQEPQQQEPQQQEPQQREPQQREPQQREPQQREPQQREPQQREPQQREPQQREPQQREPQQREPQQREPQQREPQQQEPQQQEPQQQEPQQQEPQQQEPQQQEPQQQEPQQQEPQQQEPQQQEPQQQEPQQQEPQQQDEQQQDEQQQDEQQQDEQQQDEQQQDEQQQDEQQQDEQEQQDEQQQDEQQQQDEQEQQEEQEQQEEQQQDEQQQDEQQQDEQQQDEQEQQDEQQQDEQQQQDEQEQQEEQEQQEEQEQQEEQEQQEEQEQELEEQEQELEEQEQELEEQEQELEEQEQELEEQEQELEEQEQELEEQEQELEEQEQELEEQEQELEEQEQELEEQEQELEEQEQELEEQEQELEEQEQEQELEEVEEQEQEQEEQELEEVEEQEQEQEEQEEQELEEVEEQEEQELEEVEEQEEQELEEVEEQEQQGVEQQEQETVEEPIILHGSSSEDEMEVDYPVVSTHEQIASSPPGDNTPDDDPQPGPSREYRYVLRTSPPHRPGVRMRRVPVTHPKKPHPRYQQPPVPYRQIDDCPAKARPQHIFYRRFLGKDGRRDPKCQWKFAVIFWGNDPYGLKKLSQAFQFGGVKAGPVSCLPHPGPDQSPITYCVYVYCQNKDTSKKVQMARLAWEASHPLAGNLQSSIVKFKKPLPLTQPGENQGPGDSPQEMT
Vif TR-FRET – inhibitors of Vif binding to APOBEC3G peptide, primary screen, biochemical, TR-FRET, GST-Vif 1-94, biotin-A3G peptide, dose response retest (AID 1117319); TR-FRET GST-Vif / biotin-A3G peptide binding; higher % means a stronger effect; test concentration not given here; strong numbers were not always called active; one-dose inhibition, %; IC50 in µM for titrated hits; hit rate 0.57% among 260,000;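 active = above the screen mean plus three standard deviations and confirmed in dose response; inconclusive = results disagree or hit not tested in dose response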;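 also: Vif residues 1-94 fused to GST binding biotinylated APOBEC3G peptide 110-148; 0% = full assay without inhibitor and 100% = GST in place of GST-Vif; retest series ran down from 100 µM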
E coli growth – E. coli growth inhibition. OD600 absorbance (concentration not given with the values). hit rate 0.21% among 330,000. AID 1053175. Escherichia coli growth, OD600, 23 h; hits give low values;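 active = OD600 absorbance below the run mean of sample wells minus 3.6 SD, in any replicate, cut at about 0.56 in these data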;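 also: stock transfer was 300 nL into about 60 µL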
UCH37 DUB inh – inhibitors of human deubiquitinating enzyme UCH37 | Q9Y5K5 | purified proteasome/UCH37, Ub-AMC cleavage fluorescence | inhibition, % (test concentration not listed) | hit rate 0.33% among 330,000 | AID 588478;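 active = mean of two replicates above 20%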;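 also: 0% = compound-free wells with enzyme and 100% = wells lacking proteasome; stock transfer was 100 nL into about 20 µL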
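Assay system: Proteasome-bound UCH37. Buffer or medium: pH 7.4 Tris-HCl (50 mM) with ovalbumin, ATP-MgCl2, DTT. Incubation: 30 min preincubation with enzyme, 25 min cleavage at room temperature. Measured by: fluorescence, ex 355 nm, em 460 nm. Read-out basis: percent inhibition. Control set: wells without proteasome as full block, compound-free enzyme plus substrate as uninhibited.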
Beta2AR agonist – activates human beta-2 adrenergic receptor causing internalization | P07550 | Am2.2-beta2AR cells, FAP receptor internalization, flow cytometry; reference of the scale not given here | response, % (concentration not given with the values) | hit rate 0.43% among 340,000 | AID 504454;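 active = response above a set limit, near 3 SD of response in nonfluorescent compounds, cut at about 42% in these data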;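 also: stock transfer was 100 nL into about 11 µL; a reference agonist was the positive control; negative values mostly stem from fluorescent compounds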
HNF4A DNA FP – change in binding of human HNF4 alpha to DNA. P41235. HNF4a-FITC DNA binding, fluorescence polarization, 1 h. activity change, % at 10 µM. hit rate 0.3% among 360,000; in the data active = activity change above about 30%, passing the limit was not always enough;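 also: controls were the assay level and a saturating level of protein; the project sought stronger binding though the title names inhibitors; some compounds called inactive have numbers as strong as hits; positive values seem to mean higher polarization but the record does not say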
Numbers without * were called inactive; u = inconclusive; x = not tested or not shown.

SMILES	Bfl-1 A1 inh	LANA-H2B inh	Vif TR-FRET	E coli growth	UCH37 DUB inh	Beta2AR agonist	HNF4A DNA FP
C[C@@H]1COC(=O)[C@@H](NC(=O)OCC2c3ccccc3-c3ccccc32)C/C=C\C[C@@H](CC(=O)N(CCO)Cc2ccccc2)C(=O)N1	0.4	-0.3	x	x	-4.5	1.5	4.2
Cc1ccc(C)c(NC(=O)c2cc3ccccc3o2)c1	-0.3	5.2	-1.1%	0.623	-1.0	6.4	-3.3
CC1CN(C(=S)Nc2ccc(Br)cc2)CC(C)O1 (stereo unspecified)	0.6	3.3	x	0.647	-0.1	3.3	0.8
COc1cc(OC)c(OC)cc1CN1CCCC(C(=O)c2sccc2C)C1 (stereo unspecified)	0.2	-1.2	x	0.65	1.0	-7.5	2.3
O=[N+]([O-])c1cc(-c2ccc(/C=N/n3cnnc3)o2)ccc1Cl	-0.4	-0.3	6.3%	x	x	-7.2	-1.1
Nc1nncn1C(=O)c1ccc(Cl)cc1Cl	-0.7	0.2	-3.3%	0.694	1.1	2.0	-2.9
Cc1ccc(S(=O)(=O)n2c3ccc(F)cc3c3nc(C)sc32)cc1	-1.0	3.1	-0.6%	x	x	x	x
CC1=C(C(N)=O)C(c2ccc(Br)cc2)n2ncnc2N1 (stereo unspecified)	1.7	3.6	0.7%	0.688	-0.1	x	1.8
COc1ccc(C(CC(=O)Nc2ccccc2OC)n2cccc2)cc1 (stereo unspecified)	0.2	0.8	-4.8%	x	-0.1	-0.8	2.1
COc1cccc2sc(N(CCCN(C)C)C(=O)C(c3ccccc3)c3ccccc3)nc12	0.4	-9.5	-3.0%	0.629	6.8	27.2	1.2
C=CCn1c(SCC(=O)OC)nc2sc3c(c2c1=O)CCN(C)C3	-0.2	-3.6	5.7%	x	x	x	x
O=C(NCC1CCCN1S(=O)(=O)c1cccs1)c1c(F)cccc1F (stereo unspecified)	0.5	6.5	1.4%	0.622	2.0	-5.5	0.5
O=C(Nc1nnc(Cc2ccc(Cl)cc2)s1)c1ccncc1	-0.2	-3.5	-1.8%	0.616	7.9	4.4	3.6
O=C(CCNC(=O)C1CCN(S(=O)(=O)c2ccccc2)CC1)NCc1ccccn1	1.6	-0.2	x	0.653	-1.6	2.3	-3.8
COc1ccc(-c2nnc(SCC(=O)Nc3ccc4c(c3)OCCO4)n2N)cc1OC	0.9	2.5	-1.8%	0.661	3.8	-3.1	3.9
COc1ccc(CCNC(=O)CN2CCN(Cc3ccc(F)cc3)C2=O)cc1OC	0.8	2.3	-1.9%	0.704	2.0	-13.3	3.3
Cc1c(S(=O)(=O)N2CCN(c3ccccc3)CC2)c(=O)n(C)c(=O)n1C	-0.4	4.9	7.7%	0.675	3.1	0.9	-2.8
COC(=O)c1cc2ccc(OC)cc2c2cc(OC)c(OC)cc12	-0.4	x	0.0%	0.744	-49.7	14.2	-1.0
CCOC(=O)[C@@H]1[C@H]2COc3cc(OC)ccc3[C@@H]2N2C(=O)N(c3cccc(C)c3)C(=O)[C@@]12C	0.9	3.9	x	x	3.9	5.5	0.7
CC(=O)N(C(C)=O)c1cccc(N(Cc2ccccc2)Cc2ccccc2)c1	x	x	-0.5%	0.692	-1.4	2.7	5.1
Cc1[nH]n(-c2cccc3ccccc23)c(=O)c1/C=N/c1sc2c(c1C#N)CCC2	-0.2	-8.5	28.9%	x	x	4.7	-5.5
CCCc1cc(=O)[nH]c(SCC(=O)NC(=O)OCC)n1	-0.1	-1.3	4.9%	0.635	1.9	-5.3	1.4
CCOC(=O)Cn1nc(C)c(-c2ccccc2)c1N	-0.6	0.1	2.6%	0.682	5.8	6.7	4.2
CCCSc1nnc(-c2c[nH]c3ccccc23)n1CC	x	-0.7	-3.9%	0.651	1.9	-7.7	-0.2
Nc1cc(Cl)ccc1C(=O)OCC(=O)NC(=O)NCc1ccccc1	0.6	-3.7	-21.4%	0.679	-77.2	2.1	-2.7

An excerpt from above in order of count of non-hydrogen atoms, falling:
SMILES	Bfl-1 A1 inh	LANA-H2B inh	Vif TR-FRET	E coli growth	UCH37 DUB inh	Beta2AR agonist	HNF4A DNA FP
C[C@@H]1COC(=O)[C@@H](NC(=O)OCC2c3ccccc3-c3ccccc32)C/C=C\C[C@@H](CC(=O)N(CCO)Cc2ccccc2)C(=O)N1	0.4	-0.3	x	x	-4.5	1.5	4.2
COc1cccc2sc(N(CCCN(C)C)C(=O)C(c3ccccc3)c3ccccc3)nc12	0.4	-9.5	-3.0%	0.629	6.8	27.2	1.2
COc1ccc(CCNC(=O)CN2CCN(Cc3ccc(F)cc3)C2=O)cc1OC	0.8	2.3	-1.9%	0.704	2.0	-13.3	3.3
Cc1[nH]n(-c2cccc3ccccc23)c(=O)c1/C=N/c1sc2c(c1C#N)CCC2	-0.2	-8.5	28.9%	x	x	4.7	-5.5
CC(=O)N(C(C)=O)c1cccc(N(Cc2ccccc2)Cc2ccccc2)c1	x	x	-0.5%	0.692	-1.4	2.7	5.1
COc1cc(OC)c(OC)cc1CN1CCCC(C(=O)c2sccc2C)C1 (stereo unspecified)	0.2	-1.2	x	0.65	1.0	-7.5	2.3
COc1ccc(C(CC(=O)Nc2ccccc2OC)n2cccc2)cc1 (stereo unspecified)	0.2	0.8	-4.8%	x	-0.1	-0.8	2.1
Nc1cc(Cl)ccc1C(=O)OCC(=O)NC(=O)NCc1ccccc1	0.6	-3.7	-21.4%	0.679	-77.2	2.1	-2.7
C=CCn1c(SCC(=O)OC)nc2sc3c(c2c1=O)CCN(C)C3	-0.2	-3.6	5.7%	x	x	x	x
CC1=C(C(N)=O)C(c2ccc(Br)cc2)n2ncnc2N1 (stereo unspecified)	1.7	3.6	0.7%	0.688	-0.1	x	1.8
CC1CN(C(=S)Nc2ccc(Br)cc2)CC(C)O1 (stereo unspecified)	0.6	3.3	x	0.647	-0.1	3.3	0.8

Remaining list, next part.
SMILES	Bfl-1 A1 inh	LANA-H2B inh	Vif TR-FRET	E coli growth	UCH37 DUB inh	Beta2AR agonist	HNF4A DNA FP
COc1ccc(-c2nnc(SCc3c(C)noc3C)o2)cc1	0.0	2.6	0.7%	0.717	5.1	-2.7	1.8
COc1ccc(C2CC(=O)C=C(NCC3CCCO3)C2)cc1 (stereo unspecified)	1.1	0.0	1.6%	0.765	2.6	-2.1	-1.6
CCc1nn(CC(=O)NCCc2ccc(S(N)(=O)=O)cc2)c(=O)c2cc3sccc3n12	0.6	-1.5	x	0.68	1.7	2.0	-0.6
COc1ccc(N2CCN(C(=O)CCS(=O)(=O)c3cccc4nsnc34)CC2)cc1	0.2	1.5	x	0.684	4.3	-0.6	-0.9
COc1ccc(C2(O)C(=O)Nc3ccc(C)cc32)cc1OC (stereo unspecified)	0.2	-1.5	-6.9%	0.639	0.3	-5.9	1.4
CCOc1ccc(N2C(=O)CSC2=S)cc1	-0.3	7.5	-2.3%	0.657	2.5	-1.2	1.6
CC(=O)C1=C(O)C(=O)N(CCCn2ccnc2)C1c1ccc(Br)cc1 (stereo unspecified)	0.7	-0.4	18.5%	0.693	4.9	-3.0	-2.7
COc1ccc2[nH]c3c(=O)n(CCCCC(=O)N4CCC(C(N)=O)CC4)c(=S)[nH]c3c2c1	-1.0	0.3	3.2%	0.66	-14.1	-1.9	-4.6
COc1ccccc1-c1noc(CCC(=O)Nc2cccc(C)c2)n1	-0.2	3.9	-2.2%	0.782	2.7	-0.3	-2.8
O=C(CCS(=O)(=O)c1ccc(Cl)cc1)Oc1ccc2c(c1)OCO2	0.7	-2.2	-1.3%	0.782	4.3	-0.3	0.4
Cc1ccc(C(=O)N[C@H](C(=O)OCc2cc(=O)n3c(n2)sc2ccccc23)C(C)C)cc1	0.2	-0.6	6.6%	x	x	-14.8	-11.1
Cc1c(O)cc2n(c1=O)-c1ccc(Cl)cc1C2(C)C	1.6	-1.6	-23.4%	0.732	1.9	-0.3	4.7
CN(C)/C=N/c1sc2c(c1C#N)CCCCC2	-0.2	5.6	1.4%	x	x	-0.9	-2.8
Cc1ccnc(NC(=O)c2c(-c3ccccc3Cl)noc2C)c1	0.6	-9.1	16.9%	0.708	3.6	3.0	3.4
COc1ccc(C)cc1-n1nnnc1SCC(=O)NC1CCCC1	x	x	1.5%	0.596	3.1	-1.2	-5.7
Cc1cc2oc3ccc(NCCCn4ccnc4)cc3c(=O)c2cc1C	-4.1	2.8	x	0.692	0.3	-9.8	73.2*
COc1cccc(NC(=O)CCN2C(=O)c3ccccc3Sc3ncccc32)c1	-0.4	-3.4	5.0%	0.681	6.7	3.6	4.2
CN(C)c1ccc(C(O)P(=O)(OCc2ccccc2)c2ccc(N(C)C)cc2)cc1 (stereo unspecified)	-0.4	1.0	8.0%	0.668	3.3	-4.1	3.5
O=C(COC(=O)c1ccncc1)Nc1ccccc1	0.7	-0.6	x	0.711	3.2	-1.9	0.0
CCn1c(=O)n(C)c2c(=O)n(C)c(=O)n(C)c21	x	x	-5.0%	0.698	-0.6	10.9	2.1
O=C(O)c1cccnc1Nc1ccc(Cl)cc1	-0.2	0.6	-5.6%	0.672	5.8	1.2	2.3
O=C(CN(Cc1cccs1)S(=O)(=O)c1ccc(S(=O)(=O)NC2CCCCC2)cc1)Nc1ccccc1	0.0	-1.8	3.4%	0.746	-1.1	2.2	-5.2
CCN(CC)C(=O)C(=O)N/N=C/c1cccc(Br)c1	0.6	-0.1	-4.0%	x	x	2.1	-0.9
COc1ccccc1Oc1ccc(S(=O)(=O)N2CCN(C)CC2)cc1	0.5	0.2	5.5%	0.724	2.8	7.8	-2.5
O=C(COc1ccccc1Cl)N1CCCCCCC1	-1.0	-1.8	x	0.649	1.7	14.4	0.3
SMILES	Bfl-1 A1 inh	LANA-H2B inh	Vif TR-FRET	E coli growth	UCH37 DUB inh	Beta2AR agonist	HNF4A DNA FP
CN(C(=O)COC(=O)Cc1c(Cl)cccc1Cl)c1c(N)n(Cc2ccccc2)c(=O)[nH]c1=O	-0.5	0.1	-9.4%	0.655	5.1	-0.2	-1.9
CSc1cccc(NC(=O)N2CCN(C)CC2)c1	2.5	-6.7	21.8%	0.68	0.9	7.0	-2.0
O=C(Oc1ccccc1)c1ccc2nccnc2c1	-1.0	-3.4	-0.9%	0.68	0.2	14.9	1.1
S=c1[nH]cnc2sc(Nc3ccccc3)nc12	-1.4	3.0	u	x	x	5.2	2.3
COCCCn1nnnc1SCC(=O)N1c2ccccc2CC1C (stereo unspecified)	0.3	-1.4	13.7%	0.692	2.8	-2.0	0.4
O=C(CN(Cc1ccccc1)S(=O)(=O)c1ccccc1)N/N=C/c1ccccc1C(=O)O	0.3	3.7	x	x	x	-7.7	2.6
CCCN1CCN(C(=O)c2ccc(Sc3ccc(C)cc3)c(NC(C)=O)c2)CC1	0.2	8.1	14.6%	0.739	4.7	-6.1	1.7
COc1ccc(C(=O)NC(C)Cn2nc(C)cc2C)cc1OC1CCN(C(C)=O)CC1 (stereo unspecified)	0.6	16.1*	-3.4%	0.72	-1.0	7.8	4.4
COC(=O)Cn1cnc2c(cnn2-c2ccccc2)c1=O	-0.5	1.4	1.8%	0.68	1.3	3.8	0.8
Cc1ccc(NC(=O)CSCC(=O)NCCc2ccccn2)c(C)c1	u	4.0	-1.6%	0.668	0.0	2.0	0.8
C/C(=N\NC(=O)c1ccncc1)c1ccc(NC(=O)c2ccc(Cl)cc2)cc1	0.9	-3.5	x	x	x	-2.9	3.1
Cc1c(C(=O)N2CCOCC2)sc2ncn(CC(=O)N3CCC(C)CC3)c(=O)c12	0.3	x	3.5%	0.8	4.0	20.3	-3.5
S=C(NCc1cccnc1)Nc1ccc(Oc2ccccc2)cc1	-0.4	-49.2	10.0%	0.645	2.5	-28.2	4.1
